From PubChem
eIF4H inh = inhibitors of RNA binding by human eIF4H | AID 2012 | eIF4H fluorescence polarization binding assay | actives 0.94% (n = 290,000) | inhibition, % at 35 µM;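 active means 50% or more with normal probe brightness, or confirmed in later tests; inconclusive means above 50% with abnormal brightness, or retests that disagree; inactive means below 50% or failed in later tests; about a fifth of its hits are not listed in these tables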;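 further: calls also rest on retests at 20 µM and on dose response follow-up; 0% = protein and probe with vehicle and 100% = probe without protein; strong numbers were not always called active; many hits fall short of the cut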
Yeast UUG start = alters start codon recognition fidelity in yeast. AID 602363. S. cerevisiae UUG-firefly luciferase reporter, luminescence/redox ratio. activity score, % at 18.7 µM. actives 0.13% (n = 350,000);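 active means replicate mean at a twofold rise or more, about +100% in these data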;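 further: firefly luciferase made from a UUG start codon reports start codon fidelity; reporter light over untreated wells divided by growth signal over untreated wells; some hits fall short of that in this replicate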
PABP polyA inh = PABP-poly(A) binding inhibition. actives 1% (n = 290,000). P11940. inhibition, % at 35 µM. PABP-poly(A) RNA binding, fluorescence polarization;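 active means 50% or more with normal probe brightness, or confirmed in later tests; inconclusive means above 50% with abnormal brightness, or retests that disagree; inactive means below 50% or failed in later tests; about a fifth of its hits are not listed in these tables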;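 further: calls also rest on retests at 20 µM and on dose response follow-up; controls were probe without protein and protein plus probe with vehicle; some compounds called inactive have numbers as strong as hits; many hits fall short of the cut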
Target sequence (P11940 whole entry, looked up): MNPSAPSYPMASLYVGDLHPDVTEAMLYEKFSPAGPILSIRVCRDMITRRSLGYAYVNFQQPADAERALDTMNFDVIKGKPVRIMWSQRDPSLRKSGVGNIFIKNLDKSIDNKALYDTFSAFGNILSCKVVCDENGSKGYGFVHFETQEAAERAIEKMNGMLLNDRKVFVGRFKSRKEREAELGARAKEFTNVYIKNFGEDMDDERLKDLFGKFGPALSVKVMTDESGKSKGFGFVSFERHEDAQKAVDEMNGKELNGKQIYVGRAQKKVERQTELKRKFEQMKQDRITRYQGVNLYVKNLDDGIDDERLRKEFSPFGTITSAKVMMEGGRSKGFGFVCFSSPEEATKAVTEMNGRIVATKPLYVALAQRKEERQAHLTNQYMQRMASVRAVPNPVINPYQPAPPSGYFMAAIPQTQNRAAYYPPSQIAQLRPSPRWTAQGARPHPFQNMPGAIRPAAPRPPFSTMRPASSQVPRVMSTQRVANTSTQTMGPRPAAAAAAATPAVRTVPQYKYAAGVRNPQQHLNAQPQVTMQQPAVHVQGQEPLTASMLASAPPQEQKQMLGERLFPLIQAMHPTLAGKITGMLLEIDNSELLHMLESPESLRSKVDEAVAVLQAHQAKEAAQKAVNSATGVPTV
CSC inhib = blocks cancer stem cells; cancer stem cell-like cells viability, luminescence; inhibition, % at 7.5 µM; actives 1.1% (n = 300,000);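 active means mean at 75% or more and at least half the replicates too; inconclusive means mean and replicates disagree; tested in HMLE shEcad cells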;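 further: 0% = median of negative and 100% = median of positive control wells; the first replicate is given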
Rce1 inhib = yeast Ras-converting enzyme inhibition. actives 0.27% (n = 290,000). AID 2563. calls only. yeast membranes, quenched prenylated peptide cleavage fluorescence;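 active means fall in fluorescence gain of 50% or more versus controls, with final raw signal at or below 3038400; inconclusive means same 50% fall but final raw signal above 3038400; inactive means fall in fluorescence gain under 50%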;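 further: plate controls were neutral control wells for no effect and wells lacking membranes for full effect; tested at 10 µM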
Target sequence (Q03530 whole entry, looked up): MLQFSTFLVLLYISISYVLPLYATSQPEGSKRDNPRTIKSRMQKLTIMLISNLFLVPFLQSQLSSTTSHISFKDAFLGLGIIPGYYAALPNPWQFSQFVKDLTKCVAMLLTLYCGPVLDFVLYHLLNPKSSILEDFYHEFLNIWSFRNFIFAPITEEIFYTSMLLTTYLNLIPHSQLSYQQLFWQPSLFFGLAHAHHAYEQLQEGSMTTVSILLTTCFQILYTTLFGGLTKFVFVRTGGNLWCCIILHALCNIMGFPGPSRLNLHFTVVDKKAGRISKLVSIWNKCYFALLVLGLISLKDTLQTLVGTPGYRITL
HIV Env fusion = blocks HIV Env-driven cell-cell fusion. HeLa-JRFL Env/CEM21 cell fusion, luciferase. inhibition, % at 12.3 µM. actives 1.1% (n = 360,000). AID 651610;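 active means mean replicate inhibition score of at least 50 and every replicate individually at or above 50; inconclusive means only one of the two criteria met; inactive means mean below 50 and not all replicates reaching 50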;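 further: 0% = plate neutral controls and 100% = maraviroc near 300 nM; one replicate is shown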
MT1-MMP act inh = MT1-MMP (human) activation inhibition. P50281. HT1080 RFP-PRO-GFP cells, GFP/RFP ratio fluorescence, overnight; percent of plate control window, DMSO zero. GFP/RFP ratio change, % at 20 µM. actives 0.061% (n = 360,000);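 active means GFP/RFP ratio change of at least 30% with cell ATP level not reduced by more than half and red fluorescence within 50% of control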; further: strong numbers were not always called active
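Assay system: HT1080 cells carrying an RFP-PRO-GFP reporter | Dosing: Single dose of 20 µM compound, 1% DMSO final | Incubation: Cells overnight before dosing, compound overnight, 37 °C, 5% CO2 | Evaluation: GFP/RFP fluorescence ratio | Control set: DMSO and RFP-L50D-GFP cell wells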
eIF4H inh retest = further read-out of eIF4H inh, marked with its call; inhibition, %; compound at 20 µM; confirmation average;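 mean of two retest wells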
PABP polyA inh retest = further read-out of PABP polyA inh, marked with its call; inhibition, %; compound at 20 µM; confirmation repeats;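 mean of two retest wells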
MT1-MMP act inh RFP = also measured in MT1-MMP act inh; calls as there; RFP signal change, %; measured here: RFP expression control read;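 0 = vehicle wells; hits needed this value within 50% of zero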
* = called active by the depositor; i = inactive; ? = inconclusive; / = no result given; & = joins results of further samples. Some of the compounds tested; rates above refer to the full screens.

SMILES	eIF4H inh	Yeast UUG start	PABP polyA inh	CSC inhib	Rce1 inhib	HIV Env fusion	MT1-MMP act inh	MT1-MMP act inh RFP	others
Cc1ccc(C(OC(=O)c2ccco2)C(=O)NC2CCCC2)cc1 (centres undefined)	5	-17	12	25	i	4	1	6
COc1ccc(C(=O)Nc2nc(CC(=O)NCCc3ccccc3)cs2)cc1	/	/	/	-5	i	8	4	-9
COc1ccc(C/C(N)=N/OC(=O)Cc2ccc(OC)c(OC)c2)cc1	-6	9	-10	-5	i	/	8	-2
COCc1ccc(C(=O)NC2CCCc3c2cnn3-c2ccc(C)c(C)c2)o1 (centres undefined)	-5	2	-7	-5	i	26	-4	-23
CCOC(=O)c1cccc(NC(=O)C2CCCN(S(=O)(=O)c3c(C)nn(C)c3C)C2)c1 (centres undefined)	-5	-3	-4	5	/	8	-6	-12
COc1ccc(S(=O)(=O)Cc2ccc(C(=O)N3CCN(c4ccccc4)CC3)o2)cc1	0	-2	-15	3	i	-2	-1	0
CCOC(=O)C1=CN(C)C=C(C(=O)OCC)C1c1ccsc1	-3	-16	-7	-2	i	-13	4	-1
CC(C)(C)SCCNC(=O)CSc1ccccc1	/	-13	/	-3	i	/	2	0
Nn1c(SCC(=O)N2CCN(S(=O)(=O)c3ccc(Cl)cc3)CC2)nnc1-c1cccs1	-2	-17	3	27	i	/	0	2
Cc1ccccc1-c1nc2ccccc2c(=O)o1	/	-3	/	/	/	27	0	2
CCCCCCSc1ccc([C@H]2N[C@@](Cc3ccccc3)(C(=O)OC)[C@H]3C(=O)N(C)C(=O)[C@@H]23)cc1	/	-14	/	22	i	15	-6	-19
O=C(Nc1nc2ccccc2[nH]1)c1cc2ccccc2o1	9	13	5	6	i	-65	-6	-5
C[C@H]1CN([C@@H](C)CO)C(=O)c2cc(NC(=O)C3CCCCC3)ccc2O[C@H]1CN(C)Cc1ccc(-c2ccccc2)cc1	/	-3&13	/	29	/	20	2	-4
CC1(C)CC(C2N3CC4(C)CN2CC(C)(C3)C4=O)CCO1 (centres undefined)	-6	3	-7	-7	i	-20	2	1
O=C(COC(=O)C1CCN(C(=O)Nc2ccccc2)CC1)NCC(F)(F)F	-5	-9	-12	-1	i	3	0	1
C/C(=N\N=C\c1ccccc1F)c1nnn(-c2nonc2N)c1C	-11	-22	-5	-24	i	/	-2	-6
COc1ccccc1CN1CCCC(C(=O)N(C)Cc2ccccc2)C1 (centres undefined)	9	/	8	/	i	/	2	2
COC(=O)c1sccc1NC(=O)Cc1ccc(OC)cc1	6	/	-4	-1	i	14	-5	-7
O=C(NC1CCCCCC1)c1ccco1	-4	-21	4	-6	i	2	3	5
O=S(=O)(NCCC1=CCCCC1)c1ccccc1Br	/	-5	/	/	/	5	5	-1

Looked up one by one from the list above, 2 records:
SMILES	eIF4H inh	Yeast UUG start	PABP polyA inh	CSC inhib	Rce1 inhib	HIV Env fusion	MT1-MMP act inh	MT1-MMP act inh RFP	others
Cc1ccccc1-c1nc2ccccc2c(=O)o1	/	-3	/	/	/	27	0	2
O=C(Nc1nc2ccccc2[nH]1)c1cc2ccccc2o1	9	13	5	6	i	-65	-6	-5

Carrying on.
SMILES	eIF4H inh	Yeast UUG start	PABP polyA inh	CSC inhib	Rce1 inhib	HIV Env fusion	MT1-MMP act inh	MT1-MMP act inh RFP	others
CN1C(=O)c2ccc(NC(=O)c3c(F)c(F)c(F)c(F)c3F)cc2C1=O	3	-18	-7	-13	i	-39	1	-1
CCOCCn1c(SCCCc2ccccc2)nc2c1c(=O)[nH]c(=O)n2C	-5	1	4	-14	i	-3	5	-3
O=S1(=O)CC(N2CCN(CCO)CC2)CN1Cc1ccc(F)cc1 (centres undefined)	/	-8	/	/	/	15	1	6
Cc1ccc(C)c(-c2nnc(NC(=O)Cc3ccc(F)cc3)o2)c1	0	-7	-4	42	i	/	5	-3
CCOc1ccc(OCC(=O)NCCS(=O)(=O)N2CCN(c3ccccc3)CC2)cc1	/	-32	/	/	/	-9	-1	-2
Cc1nnc(SCC(=O)Nc2cc(-c3cc(C)c(C)cc3C)nn2-c2ccccc2)s1	0	/	4	-10	i	8	-2	-7
CCCCCn1cnc2c(sc3nc4c(cc32)CSC(C)(C)C4)c1=O	3	-10	-3	3	i	/	27	-18
Cc1nnc(Nc2ccccc2F)s1	-13	/	-12	-17	i	-8	-2	4
O=[N+]([O-])c1ccccc1/C=N\Nc1nccs1	-5	1	-4	-10	/	-103	0	-3
CC1CCC(O)(C(C(=O)O)c2ccccc2)CC1 (centres undefined)	/	-8	/	/	/	-7	2	4
COc1cccc(CNC(=O)C2CCN(S(=O)(=O)c3ccc(F)cc3)CC2)c1	-4	-11	-9	/	i	/	2	3
COc1ccc(CNc2nc(-c3ccccc3)nc3ccccc23)cc1OC	92	-3	8	16	i	11	0	-2	eIF4H inh retest=-8;PABP polyA inh retest=-3
COc1ccc(OC)c(-c2csc(NC(=O)COC(=O)C3CC3)n2)c1	/	-21	/	-5	/	/	1	1
COC(=O)C1=C(C)Nc2nnnn2C1c1ccc(Cl)cc1Cl (centres undefined)	2	-3	-5	6	/	/	2	-4
CN(C(=O)CSc1nnc(Cc2cccc3ccccc23)n1N)C1CCS(=O)(=O)C1 (centres undefined)	-1	-22	4	-5	/	/	-2	3
CSc1ccccc1C(=O)Nc1cc(C)cc(C)c1	-5	-14	3	2	i	-62	2	-2
O=C(O)Cc1ccc(N=Cc2c(O)ccc3ccccc23)cc1	-4	/	8	2	i	33	1	4
CC(C)(C)OC(=O)N1CCC(C(=O)Nc2cccc(C(=O)N3CCCCC3)c2)CC1	/	16	/	/	/	5	3	-1
O=C(NCCS(=O)(=O)N1CCN(c2ccccc2F)CC1)c1ccc(Br)cc1	-8	-22	3	-6	i	-5	5	6
O=C(COC(=O)c1ccc2c(c1)C(=O)N(Cc1ccco1)C2=O)NCC(F)(F)F	-3	-1	7	-21	/	15	0	3
CC1(C)Cc2c(sc3ncn4nc(-c5ccco5)nc4c23)CO1	/	-12	/	-13	i	/	-1	-1
CC(C)(C)NC(=O)NC12CC3CC(CC(C3)C1)C2	15	/	-16	-9	i	8	-2	-1
CCCCCc1c(C)[nH]c2nc3ccccc3n2c1=O	11	-15	6	-13	i	-7	2	0
COCCN(C(=O)c1snc(C(N)=O)c1N)C(C(=O)NC1CCCCC1)c1ccc(F)cc1 (centres undefined)	-3	0	2	-9	i	9	-1	1
O=C1CCCN1CCCNS(=O)(=O)c1ccccc1	-8	2	-6	-5	i	9	-2	2
COc1ccc2c(c1)c(N=O)c(O)n2C	-8	-23	5	-5	/	/	3	6
CCC(OC(=O)CN1C(=O)c2ccccc2C1=O)C(=O)NC1CCCC1 (centres undefined)	-10	17	-5	/	i	-12	-1	0
O=C(c1cccc(N2CCCC2=O)c1)N1CCN(c2cccc(Cl)c2)CC1	-1	-9	1	-23	i	/	-9	-13
Cc1csc2c(=O)n(CCO)c(=O)[nH]c12	-5	-11	-4	-3	i	13	0	-1
Cc1nn(-c2ccccc2)c(C)c1NC(=O)COC(=O)c1cc(Cl)ccc1O	/	-26	/	-5	i	-3	1	1
CC1CCCCC1NC(=O)C1CCC(CNS(=O)(=O)c2cccc3cccnc23)CC1 (centres undefined)	3	3	-4	-8	i	5	1	-3
O=C1NC(=O)/C(=C/c2ccccc2Cl)N1	-3	-14	13	-15	i	12	-3	0
CCCCn1c(-c2nn(C)c(C)c2Cl)n[nH]c1=S	0	-23	-8	-9	i	/	2	9
COc1ccc(/C(N)=N/OC(=O)Cc2ccc(OC)c(OC)c2)cc1	-2	0	-6	1	i	/	1	-19
O=C(Cn1cnc2ccccc21)N/N=C/c1ccco1	70	/	7	-2	i	23	2	2	eIF4H inh retest=3;PABP polyA inh retest=6
Nc1nonc1-c1nc2ccccc2n1CC(=O)N1CCN(c2ccc(F)cc2)CC1	-4	-13	-12	3	i	-47	-6	-2
CCCCN(C(=O)Cc1cccs1)c1nnc(-c2cccnc2)s1	2	-3	-4	5	/	-124	-2	2
Cc1ccccc1NC(=O)C1C2CC/C=C\CCC21 (centres undefined)	7	/	-3	-7	i	7	1	7
COc1ccc2c(c1)c(C(C)=O)c(C)n2-c1ccccc1	-4	-19	5	5	i	/	-3	-8
CCC1CCCN1Cn1cnc2c([nH]c3ccccc32)c1=O (centres undefined)	5	-30	1	-5	i	/	2	0
Cc1ccc(C2(C(F)(F)F)NC(=O)N3CCCN=C3S2)cc1 (centres undefined)	-12	5	5	-1	i	/	1	0
O=C(Nc1ccccc1Cl)c1cc(C2CCCCN2S(=O)(=O)c2ccc(F)cc2F)on1 (centres undefined)	/	-23	/	/	/	31	2	-8
CN(CC(=O)NNC(=O)c1cccnc1)S(=O)(=O)c1cc(Cl)ccc1Cl	-6	-9	-12	-11	i	29	2	-3
CNC(=O)c1sc(SC)cc1-c1ccc(Cl)cc1	0	-22	-7	-2	i	/	5	4
CC(c1ccco1)N(C(=O)c1ccc(S(=O)(=O)N2CCCCC2)cc1)c1ccccn1 (centres undefined)	9	-14	9	-3	i	-178	0	1
O=C(Nc1cccc(S(=O)(=O)N2CCCCCC2)c1)c1cncc(Br)c1	/	-20	/	-12	/	56*	9	-18
COCCCN(C(=O)c1cc2c(s1)CCCCC2)c1c(N)n(Cc2ccccc2)c(=O)[nH]c1=O	/	-14	/	-18	i	3	0	0
O=C(CCC(=O)Nc1ccc(Br)cc1)N/N=C/c1cc([N+](=O)[O-])ccc1O	2	/	1	12	i	-16	-2	-1
OCCN1CCN(c2nc(-c3ccccc3)nc3c2oc2ccccc23)CC1	-7	-2	1	5	i	/	-11	-10
O=C(Cn1c(C(=O)O)cc2ccccc21)c1ccccc1	-1	-5	2	-13	i	-8	3	6
C[C@@H]1CN([C@H](C)CO)C(=O)c2cc(NS(=O)(=O)c3ccc(F)cc3)ccc2O[C@@H]1CN(C)Cc1ccc(Cl)c(Cl)c1	/	-6	/	/	/	-3	-7	-17
CN1CCN(C(=O)c2cnn(-c3ccccc3)c2NC(=O)c2ccc(Br)cc2)CC1	1	-26	-4	18	i	11	5	4
CC(C)NC(=O)NC(=O)COC(=O)c1c2c(nc3ccccc13)CCC2	8	-4	13	1	i	-16	0	-13
COC(=O)c1ccccc1NC(=O)CSc1nc(-c2ccco2)cc(C(F)(F)F)n1	4	-18	-6	/	/	/	-6	-11
CC(=O)NC1=NC(=O)/C(=C/c2cc(C)n(-c3cccc(C(=O)O)c3)c2C)S1	?	/	-3	/	i	-101	-56	5
CN1CCN(c2nc(-c3cccs3)cc(C(F)(F)F)n2)CC1	5	-15	5	-10	i	-58	-9	-4
C[C@@H](C(=O)NCCCCCC(=O)O)n1nnc2ccccc2c1=O	-9	10	9	-6	i	4	4	4
CCOc1ccc(NC(=O)c2ccco2)cc1	-8	-46	-4	7	i	-122	7	3
O=C1C2C3CCC(CC3)C2C(=O)N1c1ccccc1 (centres undefined)	-8	3	-11	-9	i	-6	-2	-4
O=C(CN1CCN(Cc2ccccc2Cl)CC1)N/N=C/c1ccccn1	10	/	7	-1	i	11	0	1
COc1ccc(N2C(=O)C3CCCN3C2c2cccc(F)c2)cc1Cl (centres undefined)	2	-11	-5	-7	i	-46	6	-1
CCC(C)NC(=O)C1c2ccccc2C(=O)N(c2ccc(OC)cc2)C1c1ccc(OC)cc1 (centres undefined)	-13	10	-2	-5	i	-68	0	2
